KCNQ2 block – KCNQ2 potassium channel inhibitors, primary screen, cell-based, CHO-K1, FluxOR thallium flux, B-score (AID 2156); Potassium voltage-gated channel subfamily KQT member 2 (Rattus norvegicus), O88943; 20 min; stronger effect = lower value; only compounds with negative scores are shown here; some inactives read as strong as hits; B-score at 10 µM; 310,000 compounds, 1.1% hits;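 active means fluorescence ratio B-score at most minus 3 library SDs, with starting brightness B-score within 2 library SDs, cut at about -5.5 in these data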
Target sequence (O88943 whole entry, looked up): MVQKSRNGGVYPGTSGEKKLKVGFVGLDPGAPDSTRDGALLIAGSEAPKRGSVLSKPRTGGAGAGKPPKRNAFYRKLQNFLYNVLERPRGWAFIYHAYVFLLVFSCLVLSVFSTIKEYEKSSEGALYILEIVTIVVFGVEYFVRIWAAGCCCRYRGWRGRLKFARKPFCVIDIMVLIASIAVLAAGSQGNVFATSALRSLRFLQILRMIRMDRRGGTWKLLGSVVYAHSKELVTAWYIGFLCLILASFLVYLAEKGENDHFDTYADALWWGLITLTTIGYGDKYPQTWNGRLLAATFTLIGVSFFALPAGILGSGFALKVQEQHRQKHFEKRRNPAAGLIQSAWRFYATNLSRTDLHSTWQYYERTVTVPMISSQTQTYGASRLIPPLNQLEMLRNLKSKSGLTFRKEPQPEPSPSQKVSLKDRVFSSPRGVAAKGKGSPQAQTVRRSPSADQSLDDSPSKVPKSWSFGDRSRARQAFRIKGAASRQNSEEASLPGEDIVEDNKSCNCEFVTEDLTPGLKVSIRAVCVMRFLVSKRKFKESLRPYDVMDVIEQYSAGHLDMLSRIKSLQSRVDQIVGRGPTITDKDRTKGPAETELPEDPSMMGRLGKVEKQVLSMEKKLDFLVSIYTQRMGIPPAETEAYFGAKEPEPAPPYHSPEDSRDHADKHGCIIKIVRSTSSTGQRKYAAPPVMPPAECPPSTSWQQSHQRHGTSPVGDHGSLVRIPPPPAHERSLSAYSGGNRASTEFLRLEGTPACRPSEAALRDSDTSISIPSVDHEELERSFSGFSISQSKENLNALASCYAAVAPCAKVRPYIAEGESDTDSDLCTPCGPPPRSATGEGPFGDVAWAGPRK
KCNQ2 block baseline – further read-out of KCNQ2 block, marked with its call; B-score; measured here: initial fluorescence intensity artifact check;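 brightness before thallium and not channel activity; 0 = typical well and far values either way flag optical interference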
Numbers without * were called inactive; i = inactive. These rows are one share of the data, so the mix of outcomes need not match the whole.

The line under a structure holds: KCNQ2 block, KCNQ2 block baseline
O=C(NC(=S)NNC(=O)[C@H]1C[C@@H]1c1ccccc1)c1cccc(F)c1
 : i, -1.84
CCOC(=O)C1CCCN(C(=O)c2ccc(Cl)c(S(=O)(=O)N3CCCCC3)c2)C1 (stereo not drawn)
 : i, 1.02
COC(=O)/C(=C/c1cccnc1)NC(=O)c1ccccc1
 : i, -0.12
COC(=O)c1ccccc1NC(=O)CNc1cc(Cl)ccc1N1CCOCC1
 : i, -0.66
CC(C)OCCCNC(=O)CNC(=O)c1cccs1
 : i, 0.06
COC(=O)CNC(=O)CSc1nnc(-c2ccc(OC)cc2)n1CC(C)C
 : i, 2.21
CCS(=O)(=O)c1nn2c(N)c(/C=C3/C=CC(=O)C(OC)=C3)c(=O)nc2s1
 : i, 2.01
Cc1ccc(C2(C)NC(=O)N(CC(=O)Nc3cc(S(=O)(=O)N4CCCCC4)ccc3OC(C)C)C2=O)cc1 (stereo not drawn)
 : i, -1.49
C=CCN1C(=O)S/C(=C/c2ccc(Sc3nc4ccccc4[nH]3)o2)C1=O
 : i, -1.26
O=C(c1ccc2ccccc2n1)N1CCN(c2ccccc2Cl)CC1
 : i, -0.39
N#CC1=C(N)Oc2n[nH]c(-c3ccccc3)c2C1c1ccncc1 (stereo not drawn)
 : i, -1.05
CC(=O)Nc1ccc(NC(=O)C(C)OC(=O)CNC(=O)c2cccs2)cc1 (stereo not drawn)
 : i, 1.61
CCc1cc2c(-c3ccccc3)cc(=O)oc2cc1OC(C)C(=O)NCC1CCC(C(=O)O)CC1 (stereo not drawn)
 : i, 1.93
C=CCSc1nnc(N2C(=O)C(O)=C(C(=O)c3ccco3)C2c2ccccc2F)s1 (stereo not drawn)
 : i, 1.93
NS(=O)(=O)c1ccc(CCN2C(=O)/C(=C\c3ccc(Cl)cc3)SC2=S)cc1
 : i, 1.71
CC(C)OP(=O)(OC(C)C)C(NC(=O)c1ccccc1Br)C(N)=O (stereo not drawn)
 : i, 1.54
COc1cccc(CN2CCN(Cc3ccccc3C(F)(F)F)CC2)c1
 : i, 0.84
C=CCN(CC=C)C(=O)COn1nnc2ccc(S(=O)(=O)N3CCOCC3)cc21
 : i, -0.69
Cc1ccc(/C=N/NC(=O)c2ccncc2)s1
 : i, -2.43
Cc1ccc(NC(=S)Nc2ccc(OC(F)F)c(Cl)c2)cc1F
 : i, -0.22
CC1CCCC(C)N1C(=O)CN1C(=O)C(C)(C)Oc2ccc(C(=O)NC3CCCC3)cc21 (stereo not drawn)
 : i, -0.66
O=C(Nc1ccccc1)OCc1cc(-c2ccc(Cl)cc2)on1
 : i, 0.67
COCCCNc1nc2ccccc2nc1NS(=O)(=O)c1cc(Cl)ccc1Cl
 : i, 1.4
O=Nc1ccc(NOC(=O)c2ccccc2Br)cc1
 : i, 3.56
Cc1[nH]c(=S)c(C#N)c(C)c1CC(=O)c1ccc(Br)cc1
 : i, -1.94
Cc1cccc(OCC(=O)N/N=C/c2cccn2C)c1
 : i, -0.79
Cc1ccc(-c2ccc(C(=O)Nc3ccccc3)o2)c2ccccc12
 : -5.71*, -0.22*
CNc1ccccc(-c2ccc3ccccc3n2)c1=O
 : i, 0.45
CC(OC(=O)CCc1cc(C(C)(C)C)c(O)c(C(C)(C)C)c1)C(=O)NC1CC1 (stereo not drawn)
 : i, -1.3
O=C(Nc1ccc(CN2CCCCC2)cc1)Nc1ccc(Br)cc1Cl
 : i, -0.23
CN(CC(=O)NCc1ccc2c(c1)OCO2)S(=O)(=O)c1ccc(Br)s1
 : i, 0.22
CCOC(=O)CSc1nc(NCc2ccco2)c2ccccc2n1
 : i, 2.21
Cc1ccc(-n2c(C)cc(C3N=C(N)Nc4nc5ccccc5n43)c2C)c(C)c1 (stereo not drawn)
 : i, -0.01
Cc1ccc(C2C3=C(CC(C)(C)CC3=O)Nc3[nH]c(=S)[nH]c(=O)c32)cc1 (stereo not drawn)
 : i, 1.79
CCc1ccc(N(CC)C(=O)c2ccc3c(Cl)c4c(nc3c2)CCC4)cc1
 : i, -1.42
COc1cccc(C(=O)N2CCN(C(=O)Cc3ccccc3)CC2)c1
 : i, 1.45
CCCOc1c(Br)cc(C2C3=C(CCCC3=O)N(C)C3=C2C(=O)CCC3)cc1OC
 : i, -0.53
O=C(Nc1ccccc1C(=O)NCCCN1CCOCC1)c1ccccc1
 : i, 1.58
CCOc1ccc(C(O)(CCC(C)C)C(CN2CCOCC2)c2ccccc2)cc1 (stereo not drawn)
 : i, -0.88
COc1ccc(C2SCCN2S(=O)(=O)c2ccc(F)cc2)cc1OC (stereo not drawn)
 : i, -0.03
CO/N=C/C(c1ccc(Cl)nc1)S(=O)(=O)c1ccccc1 (stereo not drawn)
 : i, 0.05
COc1ccc(NC2=NCC(Cc3ccc(Br)cc3)S2)cc1 (stereo not drawn)
 : i, -0.07
Cc1c(CCC(C)C)c(=O)n2c([nH]c3ccccc32)c1C#N
 : i, -0.08
CC/C(=C(/CC)c1ccc(O)cc1)c1ccc(O)cc1
 : i, -1.04
Cc1cc(=O)oc2c(C)c(OC(C)C(=O)NCCCn3ccnc3)ccc12 (stereo not drawn)
 : i, 1.53
Oc1ccc2ccc3cccc[n+]3c2c1
 : i, 78.7
COc1cc(OC)c(C2=NOC(C(=O)N3CCc4ccccc4C3)C2)cc1Cl (stereo not drawn)
 : i, 0.79
O=C(Nc1cccc([N+](=O)[O-])c1)C1COc2ccccc2O1 (stereo not drawn)
 : i, -0.52
COCCn1c(C)cc(C(=O)CSc2nc(C)cc(C)c2C#N)c1C
 : i, 0.79
COc1cccc(C2C3=C(CC(C)(C)CC3=O)Nc3cc(OC)c(OC)cc32)c1 (stereo not drawn)
 : i, 1.21
C[n+]1ccccc1/C=C1\Sc2ccccc2N1CCO
 : i, 1.61
CC(C)=CC(=O)Nc1nnc(-c2cccnc2)s1
 : i, -0.05
CCc1ccccc1N(CC(=O)Nc1cccnc1)S(=O)(=O)c1ccccc1
 : i, -0.76
O=C(Nn1c(O)c(C=C2N=c3ccccc3=N2)sc1=S)c1cccc(Cl)c1
 : i, -0.06
CCCC(=O)Nc1ccc(C(=O)NCc2ccccc2Cl)cc1
 : i, 0.4
Cc1c(CN2CCCC(C)C2)c(O)n(CCO)c(=O)c1C#N (stereo not drawn)
 : i, -0.68
Cc1ccc(OCC(=O)Nc2ccccc2Sc2ccc(Cl)cc2)c([N+](=O)[O-])n1
 : i, 0.48
CCN(c1ccccc1)S(=O)(=O)c1ccc(F)cc1
 : i, -1.65
CS(=O)(=O)c1cccc(C(=O)Nc2ccccc2Cc2ccccc2)c1
 : i, -0.28
CCC(=O)Nc1nonc1-c1nc2ccccc2n1CCC(C)C
 : i, 0.33

Other compounds:
The line under a structure holds: KCNQ2 block, KCNQ2 block baseline
Cc1ccc(Cc2nnc3n(-c4cccc(C)c4)nc(C(=O)c4ccccc4)n3c2=O)cc1
 : i, 2.34
CCc1ccc(NC(=O)CN(c2cc(C)cc(C)c2)S(=O)(=O)c2c(C)[nH]c(=O)[nH]c2=O)cc1
 : i, -0.42
Cc1cccc(N(C)c2ccc3cc(S(=O)(=O)N4CCCC4)ccc3n2)c1
 : i, 0.88
COc1cc(OC)c(C2CC(=O)N3CN(c4ccc(C)cc4)CSC3=C2C#N)cc1OC (stereo not drawn)
 : i, 0.24
CCCCN1C(=O)C(=O)N(CC(=O)Nc2sc(CC)cc2C(=O)OCC)C1=O
 : i, 1.07
CC(=O)N1CCN(c2ccccc2NC(=O)c2cccc3c(Cl)cccc23)CC1
 : i, 2.08
CC(=O)c1ccc(S(=O)(=O)Nc2ccc(C(=O)NCC(c3ccccc3)N(C)C)cc2)cc1 (stereo not drawn)
 : i, -0.57
Cc1noc(C(=O)Nc2ccc3c(c2)OCO3)c1Cl
 : i, 0.12
Cc1ccc(CONC(=O)c2ccccc2)cc1
 : i, 0.45
O=C(Nc1nnc(C2CC2)s1)c1ccco1
 : i, -2
COc1cccc(S(=O)(=O)N2CCN(C(=O)c3ccco3)CC2)c1
 : i, -0.34
COc1cccc(NC(=O)C(NC2CCCC2)c2ccccc2)c1 (stereo not drawn)
 : i, -0.37
Cc1cccc(-n2cnc(C(=O)O)c2)n1
 : i, 0.44
O=c1cc(CSc2nnc(COc3cccc4ccccc34)o2)c2ccccc2[nH]1
 : i, 0.01
COc1ccccc1NC(=O)CN1C(=O)CCS(=O)(=O)c2ccccc21
 : i, 1.39
COc1cccc(N2CCN(C(=S)NCc3ccco3)CC2)c1
 : i, -1.73
CCOc1ccc(C(=O)NCC(=O)NC(C)CCc2ccccc2)cc1OCC (stereo not drawn)
 : i, 1.15
COc1cc(NC(=O)c2ccc3c(SCC(=O)O)c4c(nc3c2)CCCC4)cc(OC)c1OC
 : i, -1.2
N#Cc1ccc(-n2c(-c3ccccc3)nnc2-c2ccccc2)cc1C#N
 : i, -1.46
CCOC(=O)c1nn(-c2ccc(F)cc2)c(=O)cc1OCC(=O)N1CCN(c2ccccc2)CC1
 : i, 3.64

More entries.
compound	KCNQ2 block	KCNQ2 block baseline
COc1cccc(-c2cc(C(=O)Nc3cccnc3)c3ccccc3n2)c1	i	-1
CC(=O)c1sc(-c2ccccn2)nc1C	i	0.04
Cc1ccc(S(=O)(=O)N(C)C)cc1NC(=O)c1ccncc1	i	0.11
CCCCCCNC(=O)N[C@@H](C(=O)NCCC[C@H]1CN2C(=NC[C@@H]2Cc2ccccc2)N1CCc1cccc(OC)c1)C(C)C	i	-0.03
O=S(=O)(/N=C/N1CCOCC1)c1ccc(Cl)cc1	i	-0.59
CC(=O)Nc1ccc(S(=O)(=O)N(C)CC(=O)OCC(=O)N(CC(C)C)C2CCS(=O)(=O)C2)cc1 (stereo not drawn)	i	0.59
O=C(O)c1cccc(CSc2nc(-c3ccccc3)cc(C(F)(F)F)n2)c1	i	-0.09
COC(=O)c1cccc(NC(=O)c2nn(C)c(=O)c3ccccc23)c1	i	2.35
Cc1cccc(OCC(=O)Nc2ccc3c(c2)nc(CCN2CCCCC2)n3C)c1	i	-0.37
OC1CN=C2Sc3ccccc3N2C1 (stereo not drawn)	i	-1.11
COc1cccc(OC)c1C(=O)N1CCN(Cc2cccnc2)CC1	i	-0.45
Cc1ccccc1-c1n[nH]c(=S)n1Cc1ccccc1	i	-2.77
COc1cccc(-c2noc(Cn3nc(C(=O)O)c4ccccc4c3=O)n2)c1	i	0.14
Cc1onc(-c2ccccc2Cl)c1C(=O)O/N=C(\N)c1ccc([N+](=O)[O-])o1	i	-0.96
c1ccc(CSc2ncccn2)cc1	i	0.62
Cc1cc(Cl)cc(C)c1OCCCCCn1ccnc1	i	2.93
CCOC(=O)C1CCN(C(=O)Cn2cnc3sc(C)c(S(=O)(=O)N4CCC(C)CC4)c3c2=O)CC1	i	0.32
N#CCC(=O)N/N=C/c1cc([N+](=O)[O-])ccc1N1CCCC1	i	1.07
COc1ccc(/C=C2\Cc3ccccc3C2=O)cc1OC	i	0.42
Clc1ccc2[nH]c3c(NCCCN4CCOCC4)ncnc3c2c1	i	-0.13
Cc1ccc(C(=O)COC(=O)c2ccc3c(c2)C(=O)N(c2cccc4ncccc24)C3=O)cc1C	i	0.34
COc1ccc(CNC(=O)C/C(C)=N/NC(=O)c2ccc([N+](=O)[O-])cc2Cl)cc1	i	2.19
COC1=C/C(=C/c2c(O)c(C#N)c3ccccn23)C=CC1=O	i	-1.3
CC(/C=C/c1ccccc1)=N\NC(=O)CCc1ccccc1	i	0.19
O=C(Nc1ccc(S(=O)(=O)N2CCOCC2)cc1)C1CCN(S(=O)(=O)c2ccc(F)cc2)CC1	i	0.93
S=c1[nH]nc(-c2ccco2)n1C1CCCCC1	i	0.62
O=C(CN1CCC(NC(=O)c2ccco2)CC1)Nc1ccccc1C(F)(F)F	i	-0.63
O=C(O)COCC(=O)NC1CCN(Cc2ccccc2)CC1	i	-0.03
CCOC(=O)c1ccc2c(c1)nc(SCc1cn3ccsc3n1)n2CC	i	-0.72
CN1C(=O)/C(=C/c2cccc(Cl)c2)Sc2ccc(C(=O)N3CCOCC3)cc21	i	-0.87
CC(=O)c1nn(-c2ccc(Cl)cc2)cc1C(=O)c1ccc(C)cc1	i	1.95
CCOC(=O)c1c(CN2CCN(CCO)CC2)n(-c2ccccc2)c2cc(Br)c(O)cc12	i	2.04
COc1cccc(CNC(=O)c2cccnc2Sc2ccc(Cl)cc2)c1	i	-0.34
C/C(CC(=O)NCc1ccco1)=N\NC(=O)c1ccc(Cl)cc1Cl	i	0.61
CCC(C)NC(=O)c1cc2c(=O)n3ccccc3nc2s1 (stereo not drawn)	i	-0.01
Cc1cc(NC(=O)c2ccc3c(c2)C(=O)N(C2CCCCC2)C3=O)no1	i	-1.74
CCc1nc(SCc2nnc(-c3ccc(C)cc3)o2)c2c(C)c(C)sc2n1	i	0.57
COc1ccc2c(c1)C(=O)C(=O)N2CC1COc2ccccc2O1 (stereo not drawn)	i	2.15
